# High-throughput results: PubChem BioAssay, ICCB-Longwood Screening Facility, Harvard Medical School
# GIV Gai3 FP = GIV-Galpha-i interaction inhibition; P08753; Galpha-i3/FITC-GIV peptide fluorescence polarization, 90 min; stronger effect = lower value; scaled: aluminum fluoride 0%, vehicle 100%; percent of control (FP), % (test concentration not listed); 210,000 compounds, 0.42% hits; AID 1224905;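 active means replicate mean at 85% of control or lower, very high polarization wells dropped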;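 further: wells of about 15 µL received 100 nL stock; the first replicate is given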
# Target sequence (P08753 whole entry, looked up): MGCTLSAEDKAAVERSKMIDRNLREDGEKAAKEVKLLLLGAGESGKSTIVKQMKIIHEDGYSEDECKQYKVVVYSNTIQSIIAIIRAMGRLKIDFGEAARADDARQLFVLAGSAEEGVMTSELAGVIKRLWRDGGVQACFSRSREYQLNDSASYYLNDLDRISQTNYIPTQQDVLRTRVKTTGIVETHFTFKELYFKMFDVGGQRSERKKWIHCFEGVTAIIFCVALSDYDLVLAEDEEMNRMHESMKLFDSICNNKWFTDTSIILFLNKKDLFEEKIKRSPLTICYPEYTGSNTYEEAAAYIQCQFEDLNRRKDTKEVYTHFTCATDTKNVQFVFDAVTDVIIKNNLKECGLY
# Sa growth inh = blocks Staphylococcus aureus growth | AID 720641 | relative growth, % (no concentration beside the values) | 170,000 compounds, 0.53% hits | S. aureus RN4220 growth, OD600, 20 h, 42 °C; stronger effect = lower value;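 active means growth at 42 °C up to 50% and 20 or more points under that at 30 °C, or under 10% at both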;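 further: 300 nL library stock went into each well; scaled to the means of positive and negative controls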
# HCMV NEC inh = inhibitors of HCMV UL50-UL53 nuclear egress complex interaction | 190,000 compounds, 0.15% hits | HTRF UL50-UL53 interaction, normalized percent inhibition | AID 1918969 | inhibition, % (concentration not given with the values);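 active means both replicates at 50% or more, plus weaker picks with an unusually low signal ratio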;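 further: stock transfer was 100 nL into about 20 µL; 0% = negative control wells and 100% = wells with untagged competitor protein; inactives centre near -12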
# Sa growth inh second temp = recorded beside Sa growth inh, whose call it bears; relative growth, %; measured here: growth at 30 °C;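 optical density after 20 h as mean of two plates; 100% = untreated growth and lower means inhibition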
# Starred values were filed as active, the others as inactive; x = not tested or not shown; & = joins results of further samples. Outcome played no part in choosing rows; about 0.79% have a hit in one of these screens.
Compound,GIV Gai3 FP,Sa growth inh,Sa growth inh second temp,HCMV NEC inh
COc1cc(C2C(C(=O)OCC3CCCO3)=C(C)NC3=C2C(=O)CC(C)(C)C3)cc(Br)c1O (stereo not given),100.1,x,x,-42.9
CCC(=O)N1N=C(c2ccc(C3=NN(C(=O)CC)C(c4cccc(OC)c4OC)C3)cc2)CC1c1cccc(OC)c1OC (stereo not given),102.7,x,x,-8.0
CN(C)c1c(/C=C(/C#N)S(C)(=O)=O)cc(/C=C(/C#N)S(C)(=O)=O)c(N(C)C)c1C#N,195.7,109.9,88.2,-91.1
O=C(c1cnc2cc(-c3ccccc3)nn2c1)c1ccccc1O,90.7,x,x,-0.5
CCc1ccc(-c2nc(CN3CCC(C(=O)NCCc4ccc(Cl)cc4)CC3)c(C)o2)cc1,106.6,103.2,95.7,-35.4
O=C(CCn1c(=O)c2cccn2c2ccc(F)cc21)NCCc1ccc(Cl)cc1,98.3,106.8,80.3,2.4
COc1ccc(CN(Cc2nc3ccccc3c(=O)[nH]2)C(=O)Nc2ccccc2)cc1,97.8,95.5,63.7,0.1
O=C(O)/C=C/C(=O)N1CCN(C(=O)/C=C/C(=O)O)CC1,x,86.0,85.2,-4.9
CCC(C)(C)C1CCc2nc3ccccc3c(C(=O)OCC(N)=O)c2C1 (stereo not given),x,112.7,101.3,10.3
Cc1nn(C)c(C)c1CCN(C)S(=O)(=O)c1c(C)noc1C,97.5,x,x,-22.2
O=C(O)CSc1nc2ccccc2s1,104.7,x,x,-9.8
CCOC(=O)c1ccc(N2C(=O)c3n[nH]c(-c4cccs4)c3C2c2cccc(O)c2)cc1 (stereo not given),107.1,95.0,64.1,19.9
COc1ccccc1NC(=O)CN(Cc1ccco1)C(=O)c1cc(C2CC2)nn1-c1ccccc1,x,132.1,90.8,14.5
CCCn1cc(S(=O)(=O)c2ccc(CC)cc2)c(=O)c2cc(F)c(N3CCN(C)CC3)cc21,110.1,110.7,92.0,x
O=C(CSc1ncnc2sc3c(c12)CCC3)NCc1ccc2c(c1)OCO2,101.4,x,x,-8.0

# Remaining list, next part:
Compound,GIV Gai3 FP,Sa growth inh,Sa growth inh second temp,HCMV NEC inh
Cc1[nH]c(C)c(S(=O)(=O)N2CCC(C(=O)Nc3ccc(F)c(Cl)c3)CC2)c1C(=O)N1CCCC1,108.6,x,x,-27.9
Cc1ccc(S(=O)(=O)C(C#N)=C2SCCS2)cc1,101.4,110.5,97.0,1.1
CCc1ccccc1-n1ncc2c1ncn1nc(-c3ccncc3)nc21,104.7,107.6,100.8,14.6
O=C(CNC(=O)C1CCCCC1)Nc1nc(CC23CC4CC(CC(C4)C2)C3)cs1,98.8,107.4,85.7,x
O=C(CSc1nccc(-c2cccs2)n1)c1ccccc1,105.3,93.7,78.8,-17.9
Cn1nc(-c2ccc(Cl)cc2)[nH]c1=O,104.6,96.2,86.9,-16.0
c1cc(-c2cc(-c3nc4c5c(ncn4n3)CCC5)[nH]n2)ccn1,107.1,106.8,94.1,-12.7
COC(Cn1c(SCc2ccc(Cl)cc2)nnc1-c1ccccc1)OC,99.3,96.8,85.4,-18.5
CCN(CC)S(=O)(=O)c1ccc2oc(C(=O)Nc3ccc(C)c(C)c3)c(C)c2c1,101.4,102.1,94.5,-11.1
CCOc1cc(C=C2C(=O)OC3(CCCC3)OC2=O)cc(I)c1O,186.5,92.3,79.6,-10.4
Cc1csc2sc(C=N/C(C#N)=C(\N)C#N)c(C)c12,96.9,88.9,78.1,-11.0
COc1ccc(-c2noc(-c3ccc(NCc4cccnc4)c([N+](=O)[O-])c3)n2)cc1OC,104.8,104.8,84.1,1.5
OCC1(CO)COC2(CCN(Cc3ccccc3)CC2)N1,101.2,90.8,90.9,-16.8
CCOCCSc1c(C)cnc2c1c(=O)n(C)c(=O)n2C,104.1&98.9,131.8,79.9,x
O=C(CC12CC3CC(CC(C3)C1)C2)Nc1ccc(N2CCN(C(=O)c3ccco3)CC2)cc1,106.2,120.7,98.7,-0.1

# Filtered by structure, those above with a COOH group
Compound,GIV Gai3 FP,Sa growth inh,Sa growth inh second temp,HCMV NEC inh
O=C(O)/C=C/C(=O)N1CCN(C(=O)/C=C/C(=O)O)CC1,x,86.0,85.2,-4.9
O=C(O)CSc1nc2ccccc2s1,104.7,x,x,-9.8

# Going on with the list:
Compound,GIV Gai3 FP,Sa growth inh,Sa growth inh second temp,HCMV NEC inh
CCCN1CCN(c2nc(C(=O)OCC)nc3sc4c(c23)CCCC4)CC1,101.3,x,x,-28.6
NC(=NC(=O)c1ccccc1)c1ccc(C(F)(F)F)cn1,115.9,113.3,78.6,0.7
COc1ccc(OC)c(C(=O)COC(=O)c2ccc3ccccc3n2)c1,x,102.5,93.1,-37.2
CCOC(=O)C/C(C)=N/n1c(C)cc(C)c(C#N)c1=O,x,101.4,102.6,3.6
O=C(CS(=O)(=O)c1ccc2ccccc2c1)N1CCCCCC1,102.6,101.6,78.0,-44.2
COc1ccc(Br)cc1C=Nc1ccc2[nH]c(=O)[nH]c2c1,x,89.5,85.9,-8.3
CCn1c2ccccc2c2cc(CN3CCN(Cc4ccccc4F)CC3)ccc21,106.6,92.3,84.4,9.4
CC(=O)N(c1ccc(C(C)C)cc1)C1C=CS(=O)(=O)C1 (stereo not given),100.8,91.9,93.1,x
C=C(NCc1ccco1)c1ccc(Cl)cc1,100.9,89.1,85.4,-27.0
CC(C)Cc1ccc(C(C)C(=O)Nc2ccc(Cl)cc2)cc1 (stereo not given),101.1,87.9,82.5,-51.3
CCOc1ccccc1NC(=O)Cn1c(=O)n(Cc2ccccc2)c(=O)c2c(C)c(C)sc21,100.9,104.8,84.7,0.5
Cc1cc(C)n(-c2nc3ccccc3nc2Nc2ccc(N(C)C)cc2)n1,111.5,101.9,100.7,-0.3
O=C(CCNS(=O)(=O)c1ccccc1)Nc1ccccc1,107.9,105.7,90.8,-8.4
COc1cccc(CNC(=O)Cn2ncc3c(=O)oc4ccccc4c32)c1,107.0,103.0,107.2,8.5
Cc1ccc(S(=O)(=O)N2CCc3cc(C(=O)N(C)Cc4ccccc4)ccc32)cc1,100.8,91.8,93.3,-39.3

# (list continues)
Compound,GIV Gai3 FP,Sa growth inh,Sa growth inh second temp,HCMV NEC inh
O=C(NCc1ccccc1Cl)c1cccc(Cn2c(=O)c3cccn3c3cccnc32)c1,103.1,x,x,16.8
CCC(=O)N1CCc2cc(Br)c(S(=O)(=O)N3CCC(Cc4ccccc4)CC3)cc21,104.0,x,x,5.0
Cc1ccc(N=c2scc(-c3ccco3)n2/N=C/c2ccncc2)c(C)c1,x,93.4,94.3,-43.9
O=C(NC1CC2CCCC(C1)N2CC(=O)N1CCCc2ccccc21)c1ccccc1 (stereo not given),101.7,118.0,89.8,0.3
NCc1nc(-c2ccccc2)no1,102.4,106.5,87.4,-19.4
COc1ccc(OC)c(NC(=O)c2csc(Cl)c2OC)c1,104.8,99.9,89.9,-6.4
Cc1ccccc1CNC(=O)c1ccc(-c2nc(CS(=O)(=O)c3ccccc3)c(C)o2)cc1,99.0,166.7,80.3,x
CC1=C(C(=O)Nc2cccnc2)C(c2ccccc2)n2nc(-c3ccc(O)cc3)nc2N1 (stereo not given),108.2,104.6,92.2,-11.8
COc1ccccc1CNC(=O)CN1C(=O)CSc2ccc(S(=O)(=O)N3CCCC3)cc21,106.1,113.4,80.3,x
CCCCN1C(=O)c2[nH]nc(-c3ccccc3O)c2C1c1cccc(O)c1 (stereo not given),97.6,89.0,83.1,x
CCOc1ccc(N=C2SC(C(=O)Nc3ccc(C(=O)O)cc3)CC(=O)N2Cc2ccc3c(c2)OCO3)cc1 (stereo not given),97.7,x,x,-22.9
CCn1c(C(=O)O)c(CNCc2ccc(C)o2)c2ccc(OC)cc21,108.0,94.4,103.9,-27.8
COc1ccc(-c2nc(C)c(CCNC(=O)c3cccs3)s2)cc1OC,104.1,85.8,74.6,x
COc1ccc(C(=O)c2oc3ccccc3c2NC(=O)COc2cccc(C)c2)cc1,99.8,99.2,95.7,x
Cn1c(COc2ccccc2O)[n+](C)c2ccccc21,x,89.5,93.3,-7.2

# Further compounds follow:
Compound,GIV Gai3 FP,Sa growth inh,Sa growth inh second temp,HCMV NEC inh
Cc1ccc(C)c(N2CCN(c3nc4ccccc4n4c(C)nnc34)CC2)c1,96.3,120.4,95.5,-21.6
O=c1[nH]c2cc(-c3noc(C4CCCCC4)n3)ccc2n1C1CCCC1,99.2,x,x,-32.2
N#Cc1ccsc1NC(=O)COC(=O)C1CC(=O)N(Cc2ccco2)C1 (stereo not given),x,88.6,94.7,-0.7
CCOC(=O)C(CC)n1cnc2c(oc3ccccc32)c1=O (stereo not given),102.3,103.4,79.8,x
O=C(Nc1nc(-c2ccccc2)cs1)c1ccccc1,x,88.9,50.1,-27.7
O=S1(=O)c2ccccc2NC(c2ccc(F)c(F)c2)N1Cc1ccc(F)cc1Cl (stereo not given),101.0,x,x,16.8
O=C(NCc1ccccc1CN1CCCC1)c1cc2cc(Cl)ccc2o1,x,108.6,85.9,-3.5
CCn1c(=O)c(N2CCCC(C(=O)NCCc3c[nH]c4ccc(Cl)cc34)C2)nc2ccccc21 (stereo not given),99.1,x,x,-16.3
CCC(=O)N1c2ccccc2CC1C(=O)N1CCN(c2cccc(OC)c2)CC1 (stereo not given),99.8,85.0,86.3,x
Cc1cccc(C(=O)Nc2nnc(CCOCCOCCc3nnc(NC(=O)c4cccc(C)c4)s3)s2)c1,106.1,x,x,5.3
CC1(C)OC(c2ccccc2)CC1=O (stereo not given),99.6,89.2,111.7,12.4
Cc1ccccc1-c1nc(S(=O)(=O)c2ccccc2)c(N2CCC(C)CC2)o1,98.1,x,x,-24.0
CCOC(=O)C1CCN(C(=O)c2coc3ccccc3c2=O)CC1,x,100.0,89.4,-7.1
CC(NC(=O)CSc1nc2sc3c(c2c(=O)n1C)CCCC3)c1ccccc1 (stereo not given),99.8,x,x,-22.7
CN1CCc2nc3sc(C(=O)c4ccc(F)cc4)c(N)c3cc2C1,110.5&110.2,99.5,83.9,-122.8&-127.2

# Carrying on.
Compound,GIV Gai3 FP,Sa growth inh,Sa growth inh second temp,HCMV NEC inh
Cc1ccc(C(=O)NC(=S)Nc2ccc(NC(=O)c3ccco3)cc2)cc1C,96.2,88.1,85.0,-20.8
Cc1ccc(-c2nc3sccn3c2Nc2ccccc2)cc1,96.2,95.0,81.1,-28.0
COc1ccc(NC(=O)CSc2nnc(NC(=O)Nc3ccc(OC)cc3)s2)cc1,94.4&95.7,105.6,76.3,x
O=C(Nc1ccc2c(c1)C(=O)OC2)c1cc2ccccc2s1,101.8,85.8,90.5,-20.2
CCOC(=O)c1c(C)csc1NC(=O)CSCC(=O)O,94.3,80.8,76.5,-10.2
COc1ccc(Cl)cc1NC(=O)CN1C(=O)CSc2ncccc21,115.0,97.8,84.6,x
O=C(NC(=S)Nc1ccc(-n2nncc2-c2ccco2)cc1)C12CC3CC(CC(C3)C1)C2,105.9,104.2,98.8,3.6
COc1cccc(C(=O)c2cn(CC(=O)Nc3cc(Cl)c(OC)cc3OC)c3nc(C)ccc3c2=O)c1,120.8,86.4,96.0,x
CCC(=O)N1CCc2cc(CNS(=O)(=O)c3ccc(CC(C)C)cc3)ccc21,101.6,80.1,80.2,x
Cc1cccc(OCC(=O)NCc2ccc3c(c2)CCN3C(=O)c2ccccc2)c1,93.6,100.0,79.2,x
CC/C(C)=C(\C#N)c1nc2ccccc2[nH]1,x,100.2,88.6,-15.0
CCCCn1c(=O)c2sccc2n2c(CCC(=O)NC)nnc12,95.3,x,x,-14.4
COC1=CC(=O)c2ccccc2C1=O,96.5,1.0*,-0.2*,100.9*
Cc1nnc2n1CCCCC2,x,67.5,87.0,-17.8
Cc1ccc2oc(-c3cc(NC(=O)CC(C)C)ccc3Cl)nc2c1,107.1,92.3,106.1,-2.4

# Part of the list above with just Sa growth inh second temp, GIV Gai3 FP and HCMV NEC inh:
canonical_smiles | Sa growth inh second temp | GIV Gai3 FP | HCMV NEC inh
COc1ccc(NC(=O)CSc2nnc(NC(=O)Nc3ccc(OC)cc3)s2)cc1 | 76.3 | 94.4&95.7 | x
COc1ccc(Cl)cc1NC(=O)CN1C(=O)CSc2ncccc21 | 84.6 | 115.0 | x
O=C(NC(=S)Nc1ccc(-n2nncc2-c2ccco2)cc1)C12CC3CC(CC(C3)C1)C2 | 98.8 | 105.9 | 3.6

# Continued:
Compound,GIV Gai3 FP,Sa growth inh,Sa growth inh second temp,HCMV NEC inh
Clc1ccc(-n2cc(-c3ccccc3)c3c(NCCCN4CCOCC4)ncnc32)cc1,105.3,121.8,68.2,x
COc1ccc(Nc2cc(N3CCCC3)ncn2)cc1,106.8,80.9,88.9,-22.4
CCc1nnc(NC(=O)c2nc(S(C)(=O)=O)ncc2Cl)s1,104.0,90.2,74.1,-19.4
O=c1c2ccccc2nc(SCc2ccccc2)n1OCc1ccccc1,x,92.3,89.8,-12.4
CCOc1nc(NCCO)nc(NCCC2=CCCCC2)n1,101.2,93.9,106.4,-10.8
N#Cc1c(N)n(-c2cccc(C(F)(F)F)c2)c2nc3ccccc3nc12,x,77.6,68.5,-25.4
CCCC(=O)C1CCN(C(=O)c2ccc(C(C)(C)C)cc2)CC1,109.2,96.3,83.2,-16.1
CCc1cc(C(=O)c2ccc(OC)cc2)c(NC(=O)CC(C)(C)CC(=O)O)s1,100.1,63.5,66.0,-62.6
